From PubChem BioAssay
HSV replic up: HSV replication enhancement | HSV replication augmentation in cells, fold increase | maximum fold increase | 220,000 tested, 0.005% active;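 active means peak rise of 1.5-fold or more in the series; tested in PC3 cells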;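 further: first round at 10 µM; read as green reporter fluorescence; hits show the peak of a series up to 25 µM; 1 = signal of infected wells without compound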
PKD1 inh: PKD1 (human) kinase inhibition. PKD1 kinase fluorescence polarization assay. inhibition, %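 (about 10 µM by stock and volumes)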. 200,000 tested, 0.056% active;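 active means inhibition of 50% or more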;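 further: controls were vehicle for no effect and a reference inhibitor for full effect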
RGS16-Gao: regulators of human RGS16-Galphao interaction; AID 1441; bead-based flow cytometry RGS16-Galphao binding, fluorescence; actives lie on both sides; binding response (% of control), % at 10 µM; 220,000 tested, 0.38% active;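 active means below 25% or above 175%, edge rows of some plates excepted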;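 further: Galphao activated by GDP with aluminum fluoride before binding; 100% = wells without compound and 0% = beads without RGS; some results beyond the cut were filed as inactive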
Target sequence (O15492 whole entry, looked up): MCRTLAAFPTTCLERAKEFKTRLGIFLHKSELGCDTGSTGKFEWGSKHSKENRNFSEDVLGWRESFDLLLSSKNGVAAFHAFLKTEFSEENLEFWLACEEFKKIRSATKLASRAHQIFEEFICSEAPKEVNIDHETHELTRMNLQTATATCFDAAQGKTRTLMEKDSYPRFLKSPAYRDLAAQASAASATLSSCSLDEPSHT
Target sequence (P09471 whole entry, looked up): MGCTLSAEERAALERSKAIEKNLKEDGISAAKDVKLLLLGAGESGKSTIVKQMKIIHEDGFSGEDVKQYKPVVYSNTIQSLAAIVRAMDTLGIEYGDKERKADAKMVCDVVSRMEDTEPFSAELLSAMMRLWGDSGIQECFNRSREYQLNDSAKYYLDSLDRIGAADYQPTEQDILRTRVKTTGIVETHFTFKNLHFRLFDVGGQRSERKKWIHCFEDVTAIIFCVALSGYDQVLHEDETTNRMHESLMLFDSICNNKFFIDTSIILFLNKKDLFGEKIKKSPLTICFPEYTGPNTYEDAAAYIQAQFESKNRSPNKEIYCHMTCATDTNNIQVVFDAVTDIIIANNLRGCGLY
GALR2 agonist: GALR2 (human) receptor agonism; O43603; GALR2-expressing cells, agonist activation read-out; activation, %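 (tested at 5 µM)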; 140,000 tested, 0.48% active;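 active means above mean plus 3 SD of all compounds, about 5% in these data, not always enough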;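 further: 0% = vehicle buffer wells and 100% = reference agonist at full effect; tested in CHO reporter cells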
Target sequence (O43603 whole entry, looked up): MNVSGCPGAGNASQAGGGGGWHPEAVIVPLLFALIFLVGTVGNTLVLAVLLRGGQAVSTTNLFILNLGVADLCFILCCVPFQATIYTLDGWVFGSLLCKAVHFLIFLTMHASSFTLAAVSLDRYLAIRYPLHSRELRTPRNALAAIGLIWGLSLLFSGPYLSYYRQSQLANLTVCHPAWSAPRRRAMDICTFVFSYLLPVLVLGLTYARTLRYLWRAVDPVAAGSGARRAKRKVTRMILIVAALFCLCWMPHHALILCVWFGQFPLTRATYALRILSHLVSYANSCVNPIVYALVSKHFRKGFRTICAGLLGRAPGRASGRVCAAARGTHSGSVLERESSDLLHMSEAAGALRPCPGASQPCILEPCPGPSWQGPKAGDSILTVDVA
Insulin prom inh: TRM-6 insulin promoter activity inhibition | 130,000 tested, 0.9% active | inhibition, % at 2 µM | AID 1273 | TRM-6 cells (human fetal islet line), insulin promoter-eGFP reporter, imaging; reporter expression induced with tamoxifen;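 active means inhibition above the mean plus 3 SD, with well images judged a real hit on visual review, cut at about 60% in these data, passing the limit was not always enough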
Insulin prom inh cell count: second read-out of Insulin prom inh, no call of its own (marks repeat the call); normalized cell count, %; measured here: cell count, toxicity; reference of the scale not given here;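 cells exposed to compound for 48 h; stained nuclei by imaging scaled within each plate; lower means fewer cells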
HSV replic up primary fold: further read-out of HSV replic up, marked with its call; fold increase; compound at 10 µM; measured here: primary screen fold increase 10 uM; tested in PC3 cells;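 GFP signal in the first replicate; 1 = infected wells without compound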
* marks the source's active call; other numbers are inactive results; i = inactive; / = no result given; [ ] = remark or other dose. Rows are unselected. Share with any hit: about 1.2%.

mol	HSV replic up	HSV replic up primary fold	PKD1 inh	RGS16-Gao	GALR2 agonist	Insulin prom inh	Insulin prom inh cell count
CCOC(=O)C1CCCN(C(=O)c2ccccc2SCCOC)C1 (stereo not given)	i	0.78	1	105	-1.6	-31	87
Cc1ccc2cc(CCNC(=O)c3cc4ccccc4o3)c(=O)[nH]c2c1C	i	0.98	0	106	/	9	65
CCCCn1nnnc1NCc1ccc(C)s1	i	1.1	-3	110	-1.7	-30	108
CCC(C)(C)NC(=O)C(c1cccs1)N(CC1CCCO1)C(=O)Cn1nnc2ccccc21 (stereo not given)	i	1.1	-13	101	-0.8	-19	75
N#Cc1ccc(-c2nc3cc(C#N)c(C#N)cc3nc2-c2ccccc2)cc1C#N	i	0.64	10	103	/	-30	102
COc1ccc(S(=O)(=O)NCc2ccncc2)cc1OC	i	1.1	-8	98	-0.4	15	87
COC(=O)C1=C(C(=O)OC)[C@@H]2N(Cc3ccccc3)c3ccccc3[C@@]23C[C@@H](C(=O)OC)N(C(=O)COCc2ccccc2)C3=N1	i	0.77	/	97	/	/	/
CC(=O)N1CSCC1C(=O)NNS(=O)(=O)c1cccc(C(F)(F)F)c1 (stereo not given)	i	0.97	/	85	/	/	/
Cc1ccc(C)c(S(=O)(=O)NCC(=O)NCc2ccco2)c1	i	1	-11	99	0.1	-43	169
O=C(CSc1ccccc1)N1CCN(c2ccccc2)CC1	i	0.89	-8	165	-3.3	37	112
COc1cc(NC(=O)Cc2c(C(=O)O)[nH]c3ccccc23)cc(OC)c1OC	i	0.88	0	100	0.1	5	110
COCCNC(=O)Cn1nc(C(F)(F)F)c(Br)c1C	i	1	-5	97	-1.2	/	/
Cc1nnnn1/C(=C\c1ccccc1)C(=O)OCC(=O)N1CC2(C)CC1CC(C)(C)C2 (stereo not given)	i	0.53	-3	100	-0.4	-8	150
O=C(Nc1ccc2ccccc2c1)N1CCCN(CCOc2ccccc2)CC1	i	1.1	/	98	/	/	/
CCOC(=O)CSc1cn2c(n1)CCC2	i	1.3	-2	99	-1.7	14	121
O=C(CSc1nnnn1C1CCCCC1)Nc1nc2c(s1)CCCC2	i	0.71	-13	126	-1.7	-3	110
O=C1C=CC(=O)N1Nc1ccc(Br)cc1	i	0.89	-2	103	-0.5	3	98
N#Cc1ccccc1OCC(=O)OCC(=O)N1CCN(C(=O)c2ccco2)CC1	i	1	-8	100	/	/	/
Fc1ccc2nc(-c3ccccc3)nc(SCc3nnc(-c4ccccc4)o3)c2c1	i	0.94	-9	110	-0.8	45	87
CCOC(=O)c1sc(NC(=O)CSc2nc3ccccc3s2)c(C(=O)OCC)c1C	i	0.96	-8	30	-2.6	38	86
Cc1nc(-c2ccc(C(=O)N3CCOCC3)cc2)cs1	i	0.96	0	103	-2.9	31	56
Cc1nnc(SC(C)C(=O)Nc2ccc(S(=O)(=O)NC3CCCCC3)cc2)s1 (stereo not given)	i	1	-6	99	0.3	6	63
O=C(CSCc1c[nH]c(=O)[nH]c1=O)OCC(=O)c1ccc(Br)cc1	i	0.95	4	105	/	/	/
CCCCC(=O)NC1(C(F)(F)F)C(=O)N(CC(C)C)C2=C1C(=O)CC(C)(C)C2 (stereo not given)	i	1.1	2	99	-1.9	/	/

Record cards, from the list above. Screens in order: HSV replic up | HSV replic up primary fold | PKD1 inh | RGS16-Gao | GALR2 agonist | Insulin prom inh | Insulin prom inh cell count
`CCOC(=O)c1sc(NC(=O)CSc2nc3ccccc3s2)c(C(=O)OCC)c1C` as listed: i | 0.96 | -8 | 30 | -2.6 | 38 | 86
`N#Cc1ccccc1OCC(=O)OCC(=O)N1CCN(C(=O)c2ccco2)CC1` as listed: i | 1 | -8 | 100 | / | / | /
`CCOC(=O)CSc1cn2c(n1)CCC2` as listed: i | 1.3 | -2 | 99 | -1.7 | 14 | 121

New compounds follow:
mol	HSV replic up	HSV replic up primary fold	PKD1 inh	RGS16-Gao	GALR2 agonist	Insulin prom inh	Insulin prom inh cell count
CCn1cc(C(=O)N2CCCc3ccccc32)c2cc(OC)c(OC)cc2c1=O	/	/	-9	103	-1.9	/	/
COc1cccc(N=Nc2c(=O)[nH]n3c(C)cc(C)nc23)c1	i	0.93	-5	105	-0.9	53	89
CCOc1ccc(CCNC(=O)c2cc3sccc3n2CC)cc1OCC	i	0.84	0	104	-2.5	-14	84
O=C(NC12CC3CC(CC(C3)C1)C2)c1ccc(-c2ccccc2Cl)o1	i	1	-32	99	-1.3	-219	160
CCOC(=O)c1ccc2nc(NC(=O)c3ccco3)sc2c1	/	/	-4	96	-1.7	-165	81
Cc1onc(-c2ccccc2)c1CNC(=O)Nc1ccc(F)cc1F	i	1	/	95	/	/	/
Cc1nn(C)c(Oc2cccc(Cl)c2)c1C(=O)Nc1ccc(F)cc1F	/	/	-11	100	-0.9	33	86
CCOC(=O)c1nc(Nc2cccc(C)c2)c2ccccc2n1	i	0.73	-2	94	/	48	107
O=c1[nH]c2ccccc2s1	i	0.85	-4	23*	-2.1	-14	62
COc1cc(NC(=O)c2ccc(COc3ccccc3Br)o2)cc(OC)c1OC	i	1.1	-10	208*[activator]	-1.9	-6	54
Cc1ccc2nc(SCC(=O)NC(=O)NCc3ccco3)[nH]c2c1	i	0.99	-1	103	-1.9	/	/
O=C1CSC(c2ccccc2Cl)N1 (stereo not given)	i	0.96	8	100	/	19	68
COc1ccc(NC(=O)C(C)N2c3cccc4cccc(c34)S2(=O)=O)cc1 (stereo not given)	i	1	2	99	-1.9	-110	125
CCOc1ccc(N/C(C)=C\C(=O)c2ccc3c(c2)OCCO3)cc1	i	0.95	-6	108	/	/	/
CN1CCN(C(=O)CSc2nc(-c3ccco3)cc(C(F)(F)F)n2)CC1	i	0.96	-8	104	/	/	/
COc1ccnc(-n2cccc2C#N)c1C#N	i	1.1	-3	97	/	/	/
COC(=O)c1cc(Br)c(=O)n(CCN2CCOCC2)c1	i	1	-6	106	-3.1	/	/
COc1cc(/C=N/OCC(=O)NC23CC4CC(CC(C4)C2)C3)ccc1OCc1ccccc1	i	1	11	60	0.9	/	/
Cc1cc(C)n(C(=O)CCN2C(=O)c3ccccc3C2=O)n1	i	0.91	-16	102	-1.9	/	/
O=C(CCS(=O)(=O)c1ccc(Br)s1)NCc1ccc2c(c1)OCO2	i	0.86	5	102	-1.1	/	/
O=C(NCc1ccccc1Cl)c1cccc(C(F)(F)F)c1	i	0.99	3	86	-0.1	/	/
COc1ccc(Br)cc1CNC(=O)C1CCCN(S(C)(=O)=O)C1 (stereo not given)	i	0.7	-7	90	-0.6	-1	41
O=C1c2cccc3cccc(c23)C(=O)N1Cc1cccnc1	i	0.99	/	102	/	/	/
CCOC(=O)N1CCN(C(=O)c2cc(C)c3c(C)nn(-c4ccccc4)c3n2)CC1	i	1	-2	102	-0.2	/	/
O=C1CC(N2CCOCC2)C(=O)N1Cc1ccc(N2CCCC2=O)cc1 (stereo not given)	i	1.1	-6	108	-0.1	39	122
CSCC[C@H](NC(=O)C1CCCC1)c1nc2ccccc2[nH]1	i	0.93	1	103	/	0	84
Cc1ccc(C(C)(C)C)cc1S(=O)(=O)NC(=O)c1ccccc1	i	0.93	-4	103	/	/	/
Cc1c(C(=O)N2CC(C)OC(C)C2)sc2nc(-c3ccc(F)cc3)cn12 (stereo not given)	/	/	-5	91	-1.1	18	122
CC1CCN(C(=O)COC(=O)[C@H](C)NS(=O)(=O)/C=C/c2ccccc2)CC1	i	0.97	-1	100	-3.2	-23	102
CC(C)NC(=O)CC(c1ccccc1)c1cc(Br)ccc1O (stereo not given)	i	0.69	8	89	-3.4	-31	94
Cc1cc(N2CCN(C(=O)c3ccco3)CC2)n2nc(-c3cccc(Cl)c3)cc2n1	i	0.62	-12	104	0.2	/	/
CCCCCCC(=O)N(O)C1CC(=O)N(c2ccc(C)cc2)C1=O (stereo not given)	i	1	2	108	-0.7	8	127
COc1ccccc1NC(=O)C(=O)NCC1COc2ccccc2O1 (stereo not given)	i	1.1	4	103	-3.3	8	111
CC1=CC2=NC(=O)/C(=C\c3ccc(OC(=O)c4ccco4)cc3)C(=N)N2O1	i	0.97	1	93	/	13	95
CCOc1cc(-n2nc(C)c(C#N)c2N)nc(SC)n1	i	1	2	101	-1.3	76*	75*
N#C/C(C(=O)N1CCCCC1)=C1/N=C(N)c2ccccc21	i	0.78	-10	105	-1.2	7	79
CCOC(=O)c1nn(-c2cccc(Cl)c2)c(C)c1C(C)=O	i	0.92	-8	103	-4.3	92*	155*
COCCCNC(=O)Cn1c(=O)n(CCCCCC(=O)Nc2ccccc2)c(=O)c2sccc21	i	0.95	-5	84	-0.8	17	132
O=C(Nc1cc(C(=O)N2CCCC2)ccc1N1CCCC1)C1CC1	i	0.78	-3	102	-1.3	18	61
CCOC(=O)c1cnn(CCOC(=O)C(C)(C)C)c1NC(=O)C(C)(C)C	i	1	-18	105	-1.5	-73	92
CC1CN(C(=O)c2ccccc2Oc2ccccc2)CC(C)O1 (stereo not given)	i	1	-2	100	/	/	/
Cc1n[nH]c(C)c1CCOc1ccc(C(C)C)cc1	i	0.85	5	97	-0.8	-158	84
CCCCSc1nsc(NC(C)=O)n1	i	1.1	9	104	-2.1	/	/
CCOC(=O)CCCn1c(C)nc(=O)c(-c2ccccc2)c1C	i	0.94	-14	100	-2.4	/	/
S=C(Nc1ccc2c(c1)OCO2)NC1CCN(Cc2ccccc2)CC1	i	0.71	-5	96	0.4	i	35
CC1CCCC(=C\c2ccccc2)/C1=N/O (stereo not given)	i	1	2	78	-0.3	10	99
CC(=O)c1c(C(C)=O)c(C)n(NC(=O)c2ccc(Cl)cc2)c1C	i	0.77	-3	174	-3.4	-44	145
CCC(C)c1ccccc1NC(=O)COC(=O)c1ccc2[nH]c3c(c2c1)CCCC3 (stereo not given)	i	0.91	-16	97	0.3	0	61
CC(=O)NS(=O)(=O)c1ccc(N=NN2CCOCC2)cc1	i	1	-2	102	-1.0	-24	74
CCCS(=O)(=O)NCCc1cc2ccc(C)cc2[nH]c1=O	i	1	-11	98	-1.8	-100	75
O=C(/C=C/c1ccc(O)cc1)c1ccc(NC2=C(N3CCCCC3)C(=O)c3ccccc3C2=O)cc1	i	0.77	-3	101	-3.3	/	/
CC(/C=N\NC(=O)c1cccnc1)c1ccccc1 (stereo not given)	i	0.89	-11	/	-2.2	-10	100
CC(/C=C/C=C/c1ccccc1)=N/NC(=O)CNc1ccc(C)cc1	i	0.84	-5	98	-1.0	/	/
CSCC[C@H](NC(=O)C1CCN(S(=O)(=O)c2ccc(C)cc2)CC1)C(=O)NCc1ccco1	i	1	-1	106	-0.9	/	/
Cc1sc2ncnc(OCC(=O)NCc3cccs3)c2c1C	i	0.83	-3	103	0.8	-3	82
CN(C)CCC=C1c2ccccc2CCc2ccccc21	/	/	9	100	-2.9	-24	125
O=C(O)CCC(=O)Nc1nnc(C(F)(F)F)s1	i	0.94	-24	100	-1.3	7	55
Cc1ccc(C)c(-n2c(Cc3cc(=O)[nH]c(=O)[nH]3)nnc2SCC(=O)NCC2CCCO2)c1 (stereo not given)	i	0.93	-17	99	-3.3	/	/
CC(C)(C)C(=O)NCCn1ccc2ccccc21	i	1.5	-3	103	-2.2	/	/
N=c1sccn1CC(=O)Nc1ccccc1Oc1ccccc1	i	0.75	-7	101	-2.9	-22	105

In the list so far, 3 have a tert-butyl group.
mol	HSV replic up	HSV replic up primary fold	PKD1 inh	RGS16-Gao	GALR2 agonist	Insulin prom inh	Insulin prom inh cell count
Cc1ccc(C(C)(C)C)cc1S(=O)(=O)NC(=O)c1ccccc1	i	0.93	-4	103	/	/	/
CCOC(=O)c1cnn(CCOC(=O)C(C)(C)C)c1NC(=O)C(C)(C)C	i	1	-18	105	-1.5	-73	92
CC(C)(C)C(=O)NCCn1ccc2ccccc21	i	1.5	-3	103	-2.2	/	/

New compounds follow
mol	HSV replic up	HSV replic up primary fold	PKD1 inh	RGS16-Gao	GALR2 agonist	Insulin prom inh	Insulin prom inh cell count
c1cc2c3c(cccc3c1)NC1(CCC3(CC1)Nc1cccc4cccc(c14)N3)N2	i	0.88	/	97	/	/	/
O=C1c2ccccc2C(=O)C12OC2c1cccc2ccccc12 (stereo not given)	i	0.9	2	94	-0.7	-48	162
COc1cc(-c2cn[nH]c2N)cc(OC)c1OC	i	0.97	-3	101	-0.8	7	77
Cc1ccccc1NC(=O)CSc1[nH]c(=O)cc(C)c1C#N	i	0.96	-14	104	-0.8	/	/
N/C(=N\OC(=O)c1ccccc1)c1cccnc1	i	0.97	5	104	/	/	/
